FGF22 binding – FGF22 (human) thermal shift binding; Q9HCT0; recombinant FGF22 thermal shift, SYPRO orange fluorescence; percent of sucrose octasulfate shift, DMSO zero; calls only at 9.99 µM; 340,000 compounds, 1.5% hits; AID 651658;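 active means melting point raised past a set limit in the mean and every replicate; three in four hits are not shown here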
Target sequence (Q9HCT0 whole entry, looked up): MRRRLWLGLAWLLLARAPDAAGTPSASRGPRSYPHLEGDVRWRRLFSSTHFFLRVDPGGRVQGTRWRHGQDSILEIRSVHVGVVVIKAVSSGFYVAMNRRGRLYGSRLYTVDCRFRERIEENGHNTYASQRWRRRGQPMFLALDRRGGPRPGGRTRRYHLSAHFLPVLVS
rRNA inh HTS – selective bacterial rRNA inhibition in E. coli; E. coli WT GFP vs humanized-ribosome RFP mutants, fluorescence, 24 h; stronger effect = lower value; DMSO median 0, no signal -100; GFP signal change (wild-type ribosome), % (no concentration beside the values); 350,000 compounds, 1.6% hits; AID 720706;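 active means significant combined selectivity score with lowered wild-type GFP, culture density cut under 30%, mutant RFP and density less affected; inactive means any of these conditions unmet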; further: one replicate is shown; some compounds called inactive have numbers as strong as hits
ALR inh – inhibitors of human sulfhydryl oxidase ALR; P55789; purified ALR, DTT oxidation, H2O2 HRP-luminol luminescence; inhibition, % (test concentration not listed); 290,000 compounds, 3.8% hits;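 active means mean and each replicate at 75% or more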;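 further: stock transfer was 7.5 nL into about 7.5 µL; 0% = neutral wells and 100% = wells with inactivated enzyme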
Beta2AR agonist – activates human beta-2 adrenergic receptor causing internalization; P07550; Am2.2-beta2AR cells, FAP receptor internalization, flow cytometry; reference of the scale not given here; response, % (no concentration beside the values); 340,000 compounds, 0.43% hits;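 active means response above a set limit, near 3 SD of response in nonfluorescent compounds, cut at about 42% in these data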;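 further: stock transfer was 100 nL into about 11 µL; a reference agonist was the positive control; negative values mostly stem from fluorescent compounds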
Target sequence (P07550 whole entry, looked up): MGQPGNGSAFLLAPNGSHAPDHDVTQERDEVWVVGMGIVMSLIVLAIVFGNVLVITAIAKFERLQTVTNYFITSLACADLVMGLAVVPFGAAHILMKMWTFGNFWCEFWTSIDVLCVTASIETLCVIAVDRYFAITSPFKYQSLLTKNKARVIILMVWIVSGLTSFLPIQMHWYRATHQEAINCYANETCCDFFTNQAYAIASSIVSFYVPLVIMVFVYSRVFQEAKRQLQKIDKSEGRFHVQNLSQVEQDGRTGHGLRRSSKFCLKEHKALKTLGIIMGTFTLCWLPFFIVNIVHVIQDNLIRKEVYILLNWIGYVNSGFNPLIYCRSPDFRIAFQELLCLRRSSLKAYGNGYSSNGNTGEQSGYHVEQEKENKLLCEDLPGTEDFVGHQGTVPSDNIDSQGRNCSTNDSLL
UCH37 DUB inh – inhibitors of human deubiquitinating enzyme UCH37; AID 588478; inhibition, % (no concentration beside the values); purified proteasome/UCH37, Ub-AMC cleavage fluorescence; 330,000 compounds, 0.33% hits;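 active means mean of two replicates above 20%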;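 further: 0% = compound-free wells with enzyme and 100% = wells lacking proteasome; stock transfer was 100 nL into about 20 µL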
Target sequence (Q9Y5K5 whole entry, looked up): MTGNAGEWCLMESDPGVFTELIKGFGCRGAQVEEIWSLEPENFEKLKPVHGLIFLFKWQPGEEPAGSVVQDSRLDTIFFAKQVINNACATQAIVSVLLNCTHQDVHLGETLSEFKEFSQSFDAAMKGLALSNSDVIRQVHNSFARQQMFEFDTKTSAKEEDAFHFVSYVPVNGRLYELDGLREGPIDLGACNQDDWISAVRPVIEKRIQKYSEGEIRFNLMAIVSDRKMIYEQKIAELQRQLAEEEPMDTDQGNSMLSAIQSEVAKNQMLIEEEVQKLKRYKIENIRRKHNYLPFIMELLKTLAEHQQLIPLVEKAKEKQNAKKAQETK
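Material: human UCH37 enzyme supplied as purified proteasome complex. Measure: % inhibition of Ub-AMC cleavage fluorescence. Medium: pH 7.4 Tris-HCl (50 mM) with ovalbumin, ATP-MgCl2, DTT. Times: 30 min preincubation with enzyme, 25 min cleavage at room temperature. Detection: AMC fluorescence intensity at 355/460 nm.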
Ecoli growth – E. coli growth inhibition. Escherichia coli growth, OD600, 23 h; stronger effect = lower value. OD600 absorbance (no concentration beside the values). 330,000 compounds, 0.21% hits. AID 1053175;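 active means OD600 absorbance below the run mean of sample wells minus 3.6 SD, in any replicate, cut at about 0.56 in these data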;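 further: stock transfer was 300 nL into about 60 µL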
HNF4A DNA FP – change in binding of human HNF4 alpha to DNA; HNF4a-FITC DNA binding, fluorescence polarization, 1 h; AID 1224865; P41235; 360,000 compounds, 0.3% hits; activity change, % at 10 µM; in the data active means activity change above about 30%, passing the limit was not always enough;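 further: controls were the assay level and a saturating level of protein; the project sought stronger binding though the title names inhibitors; some compounds called inactive have numbers as strong as hits; positive values seem to mean higher polarization but the record does not say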
rRNA inh HTS OD600 – recorded beside rRNA inh HTS, whose call it bears; OD600 change, %; measured here: OD600 growth;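 optical density of the mix in the first replicate; 0 = DMSO median and -100 = no signal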
rRNA inh HTS RFP – recorded beside rRNA inh HTS, whose call it bears; RFP signal change, %; measured here: RFP humanized mutant strains;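 first replicate; 0 = DMSO median and -100 = no signal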
Numbers without * were called inactive; i = inactive; . = no result given; & = joins results of further samples. These rows are one share of the data. The share of hits here may be higher or lower than overall.

Results follow in this order: FGF22 binding	rRNA inh HTS	rRNA inh HTS OD600	rRNA inh HTS RFP	ALR inh	Beta2AR agonist	UCH37 DUB inh	Ecoli growth	HNF4A DNA FP
COc1ccc(NC(=S)NCCc2ccccc2)c(C)c1
→ i	0	1	1.1	-10	7	2.2	0.7	0.2
Cn1c(CC(=O)Nc2ccccc2)nnc1SCC(=O)Nc1ccc(N2CCOCC2)cc1
→ i	3	1	-0.7	29	-7	1.8	0.68	3.3
COc1cc(C)ccc1NC(=O)c1ccc(S(=O)(=O)N2CCOCC2)cc1
→ .	.	.	.	-5	4	2.0	0.69	-1.1
COc1ccc(CCN(C)C(=S)Nc2cccc(C)c2)cc1OC
→ i	-2	-4	-1.5	-1	-3	1.8	0.69	-0.2
O=C1CCCC/C1=C/NCc1ccccc1
→ .	.	.	.	-7	2	5.1	.	-1.7
NS(=O)(=O)c1cccc(NC(=O)CCC(=O)c2cccs2)c1
→ i	1	8	-1.2	1	-3	-0.3	0.65	1.5
CCOC(=O)c1oc2ccc(Br)cc2c1CSc1nnc(C)s1
→ .	.	.	.	12	8	2.0	0.68	-1.4
CC(C)Cc1nc(SCC(=O)N2CCCC2)c2c(=O)n(C)c(=O)n(C)c2n1
→ i	3	-4	2.0	-1	-23	1.9	0.71	0.1
COc1ccc(-c2nc(-c3ccc(C(=O)O)cc3)no2)cc1
→ i	-14	-19	-6.6	5	-1	1.6	0.67	1.3
O=C(COC(=O)c1cc(Br)ccc1O)NNC(=O)c1cccs1
→ i	.	.	.	0	3	-5.6	0.66	-1.9
CC(Sc1ncccn1)C(=O)Nc1ccc2c(c1)OCCO2 (stereo not drawn)
→ i	4	4	0.5	.	8	2.8	0.68	1.1
O=C(Cn1c2ccccc2c2nc3n(c(=O)c21)CCS3)Nc1ccccc1C(F)(F)F
→ i	10	11	-0.7	0	-17	-24	0.67	-1.4
CCOC(=O)c1cc(-c2ccccc2)n(CCC(=O)NC(C)CC)c1C (stereo not drawn)
→ .	.	.	.	-13	2	0.0	0.7	4.2
CC(CN1CCC(n2nccc2NC(=O)CCCc2ccccc2)CC1)c1ccccc1 (stereo not drawn)
→ i	-2	-22	6.5	-15	9	-0.7	0.66	0.5
O=C(CSc1ccc(F)cc1)Nc1ccccc1N1CCOCC1
→ i	-12	-25	-7.8	-5	0	0.7	0.72	1.5
C[C@H](CO)N1C[C@H](C)[C@@H](CN(C)S(=O)(=O)c2cccs2)Oc2ccc(NS(=O)(=O)c3ccc(F)cc3)cc2C1=O
→ i	-4&-9	-3&-19	4.1&8.7	-3	4	-0.6	.	-1.2
CN(NS(=O)(=O)c1ccccc1)c1nc2ccccc2nc1C(F)(F)F
→ .	.	.	.	1	-10	2.8	0.72	1.7
Cc1cc(OC(C(=O)O)c2ccccc2)c2c(C)c(Cc3ccccc3)c(=O)oc2c1 (stereo not drawn)
→ i	-24*	-9.2*	-5.9*	7	2	-248	0.69	0.7
CNC(=S)NC(CC(=O)OC)c1ccc2c(c1)OCO2 (stereo not drawn)
→ i	9	5	0.3	.	-3	2.7	0.69	-3.6
COC(=O)C1=C(C)Nc2ncnn2C1c1cccnc1 (stereo not drawn)
→ .	.	.	.	-1	3	1.2	0.67	-1.7
Fc1ccccc1/C=N/n1c(C2CCCCC2)n[nH]c1=S
→ i	-2	-10	-1.4	.	9	.	.	-4.5
CC(C)Oc1ccc(C(CC(=O)O)NC(=O)C(Sc2ccccc2)c2ccccc2)cc1 (stereo not drawn)
→ i	-27*	-10*	-1.7*	8	-1	1.2	0.68	0.7
COc1ccc(C2N(C(=O)CN3CCCC3)CCCN2S(=O)(=O)c2ccccc2)cc1 (stereo not drawn)
→ i	2	4	-4.9	-1	-8	5.0	0.67	1.1
C[C@@H]1CN([C@@H](C)CO)C(=O)CCCn2cc(nn2)CO[C@H]1CN(C)S(=O)(=O)c1ccc(-n2cccn2)cc1
→ i	31&-1	15&-5	4.8&-0.9	.	.	.	.	2.7
CCOC(=O)NC(=O)/C(C#N)=C\c1ccccc1
→ i	7	10	-1.8	-2	-1	4.6	.	2.1
N#Cc1ccc(CN2CCN(C(=O)CNC(=O)Cc3cccc4ccccc34)CC2)cc1
→ i	-10	-12	0.7	.	7	8.0	0.65	-4.0
Cc1nc(SCC(=O)NC2CCS(=O)(=O)C2)c2c3c(sc2n1)CCC3 (stereo not drawn)
→ i	2	6	2.6	15	-11	1.8	0.69	11
Cc1ccc(C(=O)NNC(=O)C(C)Oc2ccc3ccccc3c2)o1 (stereo not drawn)
→ i	-5	-13	2.3	-19	0	5.4	0.67	-0.3
COc1cc(C(=O)Nc2nc(OC)c(-c3ccccc3)c(OC)n2)cc(OC)c1OC
→ .	.	.	.	-3	17	2.3	0.71	0.8
CCOC(=O)c1ccc(NC(=O)NCc2c(C)nn(CC)c2C)cc1
→ i	-3	1	0.8	2	-2	2.2	0.71	-0.6
CCCCNC(=O)c1ccc(CS(=O)(=O)c2ccccc2OC)o1
→ i	-1	6	1.7	.	1	3.8	0.69	2.0
O=S(=O)(NCc1ccc(C(F)(F)F)cc1)c1ccc(-n2cnnn2)cc1
→ i	0	-1	-0.5	-8	4	0.8	0.74	-2.3
CCOC(=O)c1cc(-c2ccccc2C)nn1CC1CC(c2cccnc2)=NO1 (stereo not drawn)
→ i	-21	-32	-11	-4	-9	-0.1	0.65	-2.4
CCCCC1CCC(C(=O)NCC(c2ccco2)N2CCOCC2)CC1 (stereo not drawn)
→ i	4	-32	-3.3	-2	0	.	.	-0.3
CC(=O)ON=C1C=CC(=C(C#N)c2ccccc2)C=C1
→ i	-3	-6	-3.0	.	.	.	.	5.4
CCn1c(SCC(=O)NCC2CCCO2)nc2c([nH]c3ccccc32)c1=O (stereo not drawn)
→ i	6	5	1.3	-3	-6	-0.6	0.69	6.2
CCCc1cc(C(=O)N(C)CC(=O)Nc2ccc(OCC)c(OCC)c2)sc1C
→ i	3	3	1.1	-25	3	0.4	0.61	0.3
COCC(=O)N1CCC(Oc2ccc(C(=O)NC3CCOC(C)(C)C3)cc2)CC1 (stereo not drawn)
→ i	4	-37	-5.2	1	3	2.5	0.65	-2.0
CN(C)CCCOc1nc2c(c(=O)n(C)c(=O)n2C)n1C
→ .	.	.	.	-16	8	-0.4	0.58	-1.9
CN(C)C(=S)Nc1ccc2ccccc2c1
→ .	.	.	.	.	3	0.1	0.71	3.5
Cc1ccc(CNC(=O)CSc2nc(C)cc(C)c2C#N)cc1
→ .	.	.	.	-8	-1	4.7	0.69	-1.7
COc1cccc(/C=C/C(=O)OCC(=O)Nc2cccc(S(=O)(=O)NC3=NCCCCC3)c2)c1
→ i	-7	-18	4.4	.	10	-20	0.67	3.1
CC(C)CC(=O)Nc1ccc(OCC(=O)O)cc1
→ .	.	.	.	.	-4	-1.0	0.74	-3.6
Cc1ccccc1-c1nc(CS(=O)(=O)CC(=O)NCCCN2CCCC2)c(C)o1
→ i	2	10	4.4	-22	-6	2.0	0.73	2.5
O=C(c1ccccc1)N1CCN(C2c3cccc4cccc(c34)C2NS(=O)(=O)c2ccccc2)CC1 (stereo not drawn)
→ .	.	.	.	-1	15	3.1	0.68	2.0
CCOc1cc(/C=C/c2cccc[n+]2C)ccc1OCC(=O)Nc1ccc(C)cc1
→ i	4	-2	2.6	-5	0	-20	0.71	2.0
O=C(C1CC1c1ccccc1)N1CCN(c2cccc(Cl)c2)CC1 (stereo not drawn)
→ .	.	.	.	.	3	-5.0	0.73	-1.8
CCCn1cc(S(=O)(=O)c2ccc(OC)cc2)c(=O)c2cc(OC)ccc21
→ i	-1	-2	0.6	-13	5	-3.5	0.6	-2.3
Cc1ccc(NC(=O)CCN2C(=O)c3cccc4cccc(c34)C2=O)cc1
→ i	2	3	-0.2	-5	14	-7.4	0.73	2.2
Clc1ccc(-c2csc3ncnc(NCCN4CCOCC4)c23)cc1
→ .	.	.	.	-7	5	2.5	0.71	0.3
O=C(NNC(=S)Nc1ccc(Cl)c(Cl)c1)c1ccccn1
→ i	-26	-34	-4.3	69	11	4.5	0.57	-5.6
O=C(NCc1nnc(SCC(=O)N2CCCC2)o1)c1ccc(F)cc1
→ i	0	7	2.3	-8	16	1.3	0.71	3.8
CCOC(=O)Cn1cc(/C=C/[N+](=O)[O-])c2ccccc21
→ i	4	-2	1.2	11	22	4.3	0.7	-0.6
CCS(=O)(=O)c1nc(S(=O)(=O)c2ccc(C)cc2)c(N2CCC(C)CC2)s1
→ i	-12	-13	7.2	-2	-4	2.6	0.68	2.5
CCOc1cc(/C=N/NC(=O)c2ccccc2-n2cccc2)ccc1O
→ i	-2	-9	4.0	99*	-8	.	.	3.5
CC(C)(C)c1ccc(CC(=O)N2CCC2(C)C(=O)N2CCCCC2)cc1 (stereo not drawn)
→ i	1	-9	2.6	.	.	.	.	-1.4
CC(=O)c1nc2ccccc2n1S(=O)(=O)c1ccc(Cl)cc1
→ i	9	3	-4.0	-5	11	-29	0.66	0.6
O=C(CSC1=NS(=O)(=O)c2ccccc2N1)Nc1ccccc1F
→ i	0	-8	1.7	.	-2	1.9	0.65	1.1
C/C(=N\NC(=O)c1cc(O)cc(O)c1)c1ccc(NC(=O)Cc2ccccc2)cc1
→ i	11	13	-0.4	14	0	.	.	-56
CCN(CC(=O)N1CCN(Cc2ccccc2)CC1)S(=O)(=O)c1ccccc1
→ i	10	13	2.3	-2	-3	-2.9	0.72	-3.1

Following part:
Results follow in this order: FGF22 binding	rRNA inh HTS	rRNA inh HTS OD600	rRNA inh HTS RFP	ALR inh	Beta2AR agonist	UCH37 DUB inh	Ecoli growth	HNF4A DNA FP
OCC[C@@H]1C[C@@H](O)[C@H](O)[C@@]2(Cc3ccccc3CCO2)O1
→ i	14	5	-11	0	2	3.8	.	4.0
CCOC(=O)N1CCN(C(=O)CN(c2ccc(C)cc2)S(=O)(=O)c2c(C)noc2C)CC1
→ .	.	.	.	-9	7	2.7	0.71	14
O=C(NCCN1CCCCC1)Nc1ccc(F)cc1
→ i	-1	1	0.1	-8	4	0.6	0.63	-0.2
CCN(CC)CCN1C(=O)C(O)=C(C(=O)c2cc3cccc(OC)c3o2)C1c1ccc(F)cc1 (stereo not drawn)
→ i	-8	7	2.3	16	-3	3.4	0.67	-2.1
Nc1oc2ccccc2c1C(=O)Cc1ccccc1O[C@@H]1O[C@H](CO)[C@@H](O)[C@H](O)[C@H]1O
→ i	.	.	.	90*	-3	5.3	0.74	0.3
CC(=O)C1=C(O)C(=O)OC1c1ccc(C)cc1 (stereo not drawn)
→ i	6	4	-0.2	23	-2	0.5	0.74	8.1
Cc1ccc(NC(=O)CSc2nnc(CNC(=O)c3ccco3)n2C)cc1
→ i	22	16	2.1	-1	0	3.9	0.71	4.0
CCOC(=O)c1nc(S(C)(=O)=O)ncc1N1CCOCC1
→ .	.	.	.	-7	-12	4.4	0.72	4.3
O=C(CNC(=O)c1ccccc1)OCC(=O)c1cccs1
→ i	10	10	-0.5	1	2	4.6	0.71	-0.8

Exported in markdown: part of the list above.
| SMILES | FGF22 binding | rRNA inh HTS | rRNA inh HTS OD600 | rRNA inh HTS RFP | ALR inh | Beta2AR agonist | UCH37 DUB inh | Ecoli growth | HNF4A DNA FP |
| --- | --- | --- | --- | --- | --- | --- | --- | --- | --- |
| CCOC(=O)N1CCN(C(=O)CN(c2ccc(C)cc2)S(=O)(=O)c2c(C)noc2C)CC1 | . | . | . | . | -9 | 7 | 2.7 | 0.71 | 14 |
| O=C(NCCN1CCCCC1)Nc1ccc(F)cc1 | i | -1 | 1 | 0.1 | -8 | 4 | 0.6 | 0.63 | -0.2 |
| CCN(CC)CCN1C(=O)C(O)=C(C(=O)c2cc3cccc(OC)c3o2)C1c1ccc(F)cc1 (stereo not drawn) | i | -8 | 7 | 2.3 | 16 | -3 | 3.4 | 0.67 | -2.1 |

Screens from PubChem.
